Source: PubChem (Broad Institute)
Beta cell apopt – inhibitors of cytokine-induced beta cell apoptosis, primary screen, luminescence; INS-1E cytokine-induced death, ATP luminescence, 48 h; percent of positive-control rescue, neutral wells zero; AID 435005, 2010; 0.8% of 300,000 active; protection from apoptosis, % (concentration not given with the values);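 active means all replicates at 75% or more, or half of them and the mean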;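 further: 0% = cytokine-treated negative control wells and 100% = positive control rescue; higher means more ATP so stronger rescue from cytokine killing; wells of about 40 µL received 100 nL stock; the first replicate is given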
ALR H2O2 inh – inhibitors of human ALR sulfhydryl oxidase, primary screen, biochemical, H2O2 detection, HRP-luminol luminescence, single point; 3.8% of 290,000 active; FAD-linked sulfhydryl oxidase ALR (Homo sapiens), P55789; purified ALR, DTT oxidation; inhibition, % (test concentration not listed); AID 485317, 2010;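 active means mean and each replicate at 75% or more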;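 further: stock transfer was 7.5 nL into about 7.5 µL; 0% = neutral wells and 100% = wells with inactivated enzyme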
Target sequence (P55789 whole entry, looked up): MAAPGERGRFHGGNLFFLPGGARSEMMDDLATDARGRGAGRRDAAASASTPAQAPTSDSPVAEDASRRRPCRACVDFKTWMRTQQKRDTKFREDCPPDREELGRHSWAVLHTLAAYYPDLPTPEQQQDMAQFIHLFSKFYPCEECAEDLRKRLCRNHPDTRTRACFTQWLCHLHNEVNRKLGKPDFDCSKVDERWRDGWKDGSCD
Active calls of the source: *. These rows are one share of the data; the hit share may differ from the screen's.

SMILES	Beta cell apopt	ALR H2O2 inh
O=C1C=C(c2cc3ccccc3o2)C[C@@H](c2ccc(F)cc2)C1	-2	-1
COc1ccc(-c2ccc3c(c2)S(=O)(=O)c2cccc(C(=O)NCc4cc(C)oc4C(F)(F)F)c2C3=O)cc1OC	20	-6
CC(C)C[C@H](NC(=O)c1nc[nH]c1C(=O)N[C@@H](CCCCN)C(=O)OC(C)(C)C)C(=O)OC(C)(C)C	3	-2
CC(C)(C)OC(=O)NCc1ccc(CNC(=O)c2[nH]cnc2C(=O)NC2CCN(C(=O)OC(C)(C)C)CC2)cc1	14	-12
CC1(C)CC(=O)C2=C(C1)OC(N)=C(C#N)C2CCc1ccccc1 (configuration not stated)	-2	45
NC(=O)C1CCN(c2nc(-c3ccccc3C(F)(F)F)cs2)CC1	-2	14
CN1CCN(c2nc3c(c(=O)n(C)c(=O)n3C)n2CCSc2nc3ccccc3s2)CC1	-1	-3
Cc1[nH][nH]c(=O)c1C(c1c(C)[nH][nH]c1=O)c1cn(Cc2cccc3ccccc23)c2ccccc12	-12	8
COc1ccc2cc(C(c3nnnn3CCc3ccccc3)N3CCC(O)CC3)c(=O)[nH]c2c1 (configuration not stated)	1	18
O=C(CS(=O)(=O)c1cn(Cc2cccc(F)c2)c2ccccc12)N1CCOCC1	1	-2
CCn1cc(C(=O)N2CCN(c3ccccn3)CC2)c2cc(OC)c(OC)cc2c1=O	-1	7
CC(=O)c1nccs1	-1	2
CC(C)[C@H](CN1CCC[C@H]1CN1C(N)=NC[C@H]1C(C)C)N1C[C@@H](Cc2ccccc2)N(CCCC2CCCC2)C1=N	-10	-8
COc1ccc(CC(=O)Nc2ccc(-c3nnc(-c4ccccc4)o3)cc2)cc1	33	-6
O=C(Nc1ccc(C(=O)N2CCC(N3CCCC3)CC2)cc1)c1ccc(Br)o1	-6	-1
Cc1[nH]c2ccccc2c1NC(=O)CN1CCN(c2cccc(C(F)(F)F)c2)CC1	-10	-18
Oc1cccc(O)c1O	-10	83*
COCCn1c(-c2ccc(Cl)cc2)cnc1SCC(=O)NCc1cccs1	2	-1
CC(C)C(=O)N1CCN(C2=NS(=O)(=O)c3ccccc32)CC1	8	-2
COc1ccc(CN2C(=O)[C@@H]3C(c4ccc(F)cc4)=NO[C@@H]3C2=O)cc1	0	99*
CCn1c(C)cc(C(=O)COC(=O)c2ccccc2[N+](=O)[O-])c1C	32	2
O=C(Cc1csc(Nc2nc(=S)[nH]c3ccccc23)n1)NCc1cccc(Cl)c1	3	-8
COC(=O)C(NC=O)C(O)(Cc1ccccc1)C(F)(F)F (configuration not stated)	-5	-17
Cn1c(SCC(=O)Nc2sccc2C#N)nnc1-c1ccccc1	1	-2
Cc1cc(C)cc(-n2c(SCC(=O)NCc3ccco3)nc3ccccc3c2=O)c1	-6	1

(list continues)
SMILES	Beta cell apopt	ALR H2O2 inh
Cc1nc2nc(-c3ccccc3)[nH]n2c(=O)c1Cc1ccccc1	3	-2
O=C(NCCCNCc1ccccc1)/C(=N\O)c1ccccc1	2	1
COc1ccc(OC[C@@H](O)CNC(=O)c2cccc3c2C(=O)c2ccc(-c4ccc(F)cc4OCc4ccccc4)cc2S3(=O)=O)cc1	0	0
Cc1c(Cc2ccccc2)sc(/N=C/c2ccc3ccccc3c2)c1C(N)=O	4	0
O=c1oc2c(CN3CCOCC3)c(O)ccc2c2c1CCC2	-21	13
CCN(Cc1nc2ccccc2c(=O)[nH]1)Cc1cc(=O)oc2cc(OC)ccc12	3	-3
CC(=O)Oc1ccc(N2C(=O)C3C(C2=O)C2(C)C=CC3(C)O2)cc1 (configuration not stated)	4	7
O=C(NC1(C(F)(F)F)C(=O)Nc2c1c(=O)[nH]c(=O)n2-c1ccccc1)c1cccnc1 (configuration not stated)	-7	-20
c1csc(-c2nc3nc4ccccc4nc3n2Cc2ccc3c(c2)OCO3)c1	15	-2
CC(=O)Nc1ccc(S(=O)(=O)Nc2nc(CN3CCOCC3)nc3sc4c(c23)CCCC4)cc1	0	-5
O=C(c1ccc(-c2ccccc2)cc1)N1CCN(c2ncccn2)CC1	-7	-11
C=C1[C@@H](O)[C@@H]2O[C@]3(CC[C@H](/C=C/[C@@H](C)[C@@H]4CC(C)=CC5(O[C@H](C[C@@](C)(O)C(=O)OC)CC[C@H]5O)O4)O3)CC[C@H]2O[C@@H]1[C@@H](O)C[C@H](C)[C@H]1OC2(CCCCO2)CC[C@H]1C (some centres not stated)	108*	-6
C#CCOCCOCCOCCNc1nc(N2CCN(C(=O)CCCCCCCCCCNC(=O)[C@H]([C@@H](C)CC)n3cc(CCCCCN)nn3)CC2)nc(N2CCN(C(=O)CCCCCCCCCCNC(=O)[C@H]([C@@H](C)CC)n3cc(CCCCN=C(N)N)nn3)CC2)n1	98*	2
C/C(=C\C(=O)c1ccc(C)o1)Nc1ccc(C(=O)O)cc1C	-4	-4
O=C(CC(O)(C(F)(F)F)C(F)(F)F)Nc1ccc(Cl)c(Cl)c1	105*	32
Cc1ccccc1N=C(NOCc1ccccc1)c1nonc1N	-4	-9
CCCCCCNC(=O)N[C@H](C(=O)NCCC[C@H]1CN2C(=NC[C@H]2C)N1CCC(c1ccccc1)c1ccccc1)C(C)O (some centres not stated)	18	3
Cn1c(N)c(C(=O)COC(=O)c2cc(-c3ccccc3)nc3ccccc23)c(=O)n(Cc2ccccc2)c1=O	11	5
C=CCn1c(NC(=O)c2ccc(C)cc2)c(C#N)sc1=N	0	-1
Cc1cccc(C)c1NC(=O)CS(=O)CC(=O)NC1CCCc2ccccc21 (configuration not stated)	-1	4
Nn1cnn(Cc2ccccc2)c1=S	-9	2
Cc1c(C2(O)CCCCC2)[nH]c2ccc(C#N)cc12	2	0
O=C(NCC#CCSc1nnc(-c2cccc3ccccc23)o1)c1cccs1	109*	-4
Cc1noc(C)c1COc1ccc(C(=O)OCC(=O)NC2CCCCC2C)cc1 (configuration not stated)	1	-7
CC(=O)Nc1ccc(N2S(=O)(=O)c3ccccc3S2(=O)=O)cc1	5	0

Complete entries as entered above. Screens in order: Beta cell apopt | ALR H2O2 inh
Entry for Cc1ccccc1N=C(NOCc1ccccc1)c1nonc1N = -4 | -9
Entry for C/C(=C\C(=O)c1ccc(C)o1)Nc1ccc(C(=O)O)cc1C = -4 | -4
Entry for C#CCOCCOCCOCCNc1nc(N2CCN(C(=O)CCCCCCCCCCNC(=O)[C@H]([C@@H](C)CC)n3cc(CCCCCN)nn3)CC2)nc(N2CCN(C(=O)CCCCCCCCCCNC(=O)[C@H]([C@@H](C)CC)n3cc(CCCCN=C(N)N)nn3)CC2)n1 = 98* | 2
Entry for c1csc(-c2nc3nc4ccccc4nc3n2Cc2ccc3c(c2)OCO3)c1 = 15 | -2
Entry for O=C(NCC#CCSc1nnc(-c2cccc3ccccc23)o1)c1cccs1 = 109* | -4

Further records.
SMILES	Beta cell apopt	ALR H2O2 inh
CCOc1ccccc1N1CCN(Cc2ccc(OC)c(OC)c2)CC1	0	1
CCn1c(NN)nc2sc3c(c2c1=O)CCC3	-9	2
CC(=O)C1=C(C)NC(SCC(=O)c2ccc(-c3ccccc3)cc2)=C(C#N)C1c1cccnc1 (configuration not stated)	7	-10
Cn1c(-c2ccc(N)cc2)nc2ccccc21	-5	37
CCn1c(CSc2nnc(-c3ccc4c(c3)OCO4)o2)nc2cc(S(=O)(=O)N(C)C)ccc21	5	3
CCCCn1c(/N=C/c2ccccc2NS(=O)(=O)c2ccc(C)cc2)nc2ccccc21	0	9
C#CCOCCOCCOCCNc1nc(N2CCN(C(=O)CCCCCCCCCCNC(=O)[C@@H](CCSC)n3cc(CCO)nn3)CC2)nc(N2CCN(C(=O)CCCCCCCCCCNC(=O)[C@H](CCC(=O)O)n3cc(CCCCCN)nn3)CC2)n1	-16	-6
COc1cc(OC)cc(-c2sc3ccc(OC)cc3c2C#CC(C)(C)O)c1	-9	-10
N=c1oc2cc(O)ccc2cc1C(=O)Nc1ccccn1	-5	-8
CCOC(=O)c1nn(-c2ccccc2)c(=O)c2c(N)scc12	-6	-36
Cc1n[nH]c(C)c1S(=O)(=O)N1CCCC(C(=O)N2CCN(c3ccc(Cl)cc3)CC2)C1 (configuration not stated)	15	13
CCOC(=O)c1ccc(COC(=O)c2cc3ccccc3oc2=O)o1	-3	-8
O=C(NCCCn1ccnc1)Nc1cccc2ccccc12	0	-16
O=C(CSc1nc2c(c(=O)n1-c1ccc(F)cc1)SCC2)NCc1ccco1	-2	-8
CCc1cc2cc(C)cc(C)c2nc1SCC(=O)N1CCCC1	-6	-2
Clc1ccc(-c2nnc3sc(-c4ccc(Br)o4)nn23)cc1	-4	-42
CC(c1ccco1)N(C(=O)COc1ccc(Cl)cc1)c1ccccn1 (configuration not stated)	1	0
COc1ccc(C(=O)/C=C/c2cn(CN3CCN(C)CC3)c3ccccc23)cc1	-1	3
Cc1ccc(S(=O)(=O)/N=C2/NC(=O)/C(=C\c3ccco3)S2)cc1	1	11
CCCCc1nc2n[nH]c(N)c2c2c1CCC2	9	1
CC(C)[C@H](NS(=O)(=O)c1cccc(Cl)c1)C(=O)OCC(=O)NC(=O)CN1CCCC1=O	1	-6
COc1ccc(NC(=S)NC(NC(=O)c2cccc(C)c2)C(Cl)(Cl)Cl)c([N+](=O)[O-])c1 (configuration not stated)	10	-1
COc1cc(OC)cc(-n2nc(C(=O)NCCCN3CCOCC3)c3ccccc3c2=O)c1	-3	0
Cc1cc2n(n1)C(c1ccccc1)CC(c1ccc(Br)cc1)=N2 (configuration not stated)	2	4
Cc1nn(Cc2ccccc2)c(N)c1-c1ccccc1	-3	97*

Rewritten as labelled records: entries from further up
SMILES: Oc1cccc(O)c1O
  Beta cell apopt: -10 | ALR H2O2 inh: 83*
SMILES: COCCn1c(-c2ccc(Cl)cc2)cnc1SCC(=O)NCc1cccs1
  Beta cell apopt: 2 | ALR H2O2 inh: -1
SMILES: CC(C)C(=O)N1CCN(C2=NS(=O)(=O)c3ccccc32)CC1
  Beta cell apopt: 8 | ALR H2O2 inh: -2
SMILES: COc1ccc(CN2C(=O)[C@@H]3C(c4ccc(F)cc4)=NO[C@@H]3C2=O)cc1
  Beta cell apopt: 0 | ALR H2O2 inh: 99*

3 entries from above, arranged by the value under ALR H2O2 inh, highest first.
structure | ALR H2O2 inh
CCn1c(NN)nc2sc3c(c2c1=O)CCC3 | 2
CCc1cc2cc(C)cc(C)c2nc1SCC(=O)N1CCCC1 | -2
COc1cc(OC)cc(-c2sc3ccc(OC)cc3c2C#CC(C)(C)O)c1 | -10

Copied from the list:
CC(c1ccco1)N(C(=O)COc1ccc(Cl)cc1)c1ccccn1 (configuration not stated) | Beta cell apopt = 1
Cc1nn(Cc2ccccc2)c(N)c1-c1ccccc1 | ALR H2O2 inh = 97*
Clc1ccc(-c2nnc3sc(-c4ccc(Br)o4)nn23)cc1 | Beta cell apopt = -4
CC(C)[C@H](NS(=O)(=O)c1cccc(Cl)c1)C(=O)OCC(=O)NC(=O)CN1CCCC1=O | Beta cell apopt = 1
COc1cc(OC)cc(-c2sc3ccc(OC)cc3c2C#CC(C)(C)O)c1 | Beta cell apopt = -9

Continuation.
SMILES	Beta cell apopt	ALR H2O2 inh
COc1ccc(C2C(C(=O)c3ccco3)=C(O)C(=O)N2CCc2ccccc2)cc1OC (configuration not stated)	-8	-13
CC(C)(C)OC(=O)[C@H](CCCCN)NC(=O)c1[nH]cnc1C(=O)N[C@@H](Cc1ccccc1)C(=O)OCc1ccccc1	0	6
COC(=O)C1=C(C)N(Cc2ccccc2)C(=NCC(C)C)N[C@H]1c1cccc(C(F)(F)F)c1	29	-14
CCC(C)(C)NC(=O)C(c1ccc(OC)cc1)N(Cc1cccs1)C(=O)CCC(=O)Nc1cc(C)on1 (configuration not stated)	3	3
CCCNC(=O)C12CCC(C)(C(=O)C1Br)C2(C)C (configuration not stated)	-8	-14
CN(c1ccc(F)cc1)S(=O)(=O)c1ccc2[nH]cc(C(=O)O)c(=O)c2c1	-3	1
C[C@@]12C(=O)Nc3cc(F)ccc3C(=O)N1[C@H]1c3ccccc3OC[C@@H]1[C@@H]2c1ccccc1	3	6
COC(=O)c1cc2nc(-c3ccc(OC)c(OC)c3)cc(C(F)(F)F)n2n1	-2	-2
Cn1nnnc1SCC(=O)NCC(=O)c1ccccc1	5	-5
O=S(=O)(Nc1ncnc2sc3c(c12)CCC3)c1ccc2ccccc2c1	-1	7
COc1ccc(Cl)cc1C(=O)CSc1nnnn1C1CCCC1	1	14
O=C1CC(N2CCN(c3ccccc3)CC2)C(=O)N1c1ccc2c(c1)OCCO2 (configuration not stated)	-4	48
COC(=O)c1ccccc1NC(=O)c1ccc(COc2ccccc2)o1	-3	-8
CCC[C@@H](CN1CCC[C@H]1CN1C(N)=NC[C@@H]1Cc1ccccc1)N1C[C@@H]([C@H](C)CC)N(CCc2ccc(Cl)c(Cl)c2)C1=N	-6	-5
C=CC(=O)Nc1ccc(CN2C(=O)N(c3c(Cl)c(OC)cc(OC)c3Cl)Cc3cnc(NCCCCN(CC)CC)nc32)cc1	3	-16
CCCCNC(=O)COC(=O)c1c2c(nc3ccccc13)/C(=C/c1cccs1)CC2	68	-21
C#CCOCCOCCOCCNc1nc(N2CCN(C(=O)CCCCCCCCCCNC(=O)[C@@H](CCSC)n3cc(CCO)nn3)CC2)nc(N2CCN(C(=O)CCCCCCCCCCNC(=O)[C@H]([C@@H](C)CC)n3cc(CCCCN=C(N)N)nn3)CC2)n1	37	-2
O=C1c2cccc3cccc(c23)C(=O)N1c1ccc2ncccc2c1	-9	-9
CCSc1nc2c(c(=O)[nH]c(=O)n2C)n1C/C=C(/C)Cl	5	-3
CCCCNC(=O)COC(=O)c1ccc(Cl)c(S(N)(=O)=O)c1	-5	-1
C[C@@]12C(=O)Nc3cc(F)c(F)cc3C(=O)N1[C@H]1c3cc(Cl)ccc3OC[C@@H]1[C@@H]2c1ccccc1	6	0
COc1cccc(C(=O)Nc2ccc3nc(N4CCN(c5ncccn5)CC4)cc(C)c3c2)c1OC	24	4
